RanGTP-Imp inh – disruptors of Ran-importin-beta complex formation – biochemical, FRET, CFP-Ran, YFP-importin-beta, homogeneous, primary screen | cell-free CFP-Ran/YFP-importin-beta FRET ratio | inhibition, % (concentration not given with the values) | 1.1% of 300,000 active | AID 2216;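 active = most replicates above 15%; inconclusive = exactly half above 15%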;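 also: 0% = DMSO wells and 100% = Ran loaded with GDP instead of GTP; wells of about 40 µL received 100 nL stock; the first replicate is given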
UCH37 inh – blocks the human deubiquitinase UCH37; Q9Y5K5; purified proteasome/UCH37, Ub-AMC cleavage fluorescence; inhibition, % (concentration not given with the values); 0.33% of 330,000 active;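 active = mean of two replicates above 20%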;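 also: 0% = compound-free wells with enzyme and 100% = wells lacking proteasome; stock transfer was 100 nL into about 20 µL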
Target sequence (Q9Y5K5 whole entry, looked up): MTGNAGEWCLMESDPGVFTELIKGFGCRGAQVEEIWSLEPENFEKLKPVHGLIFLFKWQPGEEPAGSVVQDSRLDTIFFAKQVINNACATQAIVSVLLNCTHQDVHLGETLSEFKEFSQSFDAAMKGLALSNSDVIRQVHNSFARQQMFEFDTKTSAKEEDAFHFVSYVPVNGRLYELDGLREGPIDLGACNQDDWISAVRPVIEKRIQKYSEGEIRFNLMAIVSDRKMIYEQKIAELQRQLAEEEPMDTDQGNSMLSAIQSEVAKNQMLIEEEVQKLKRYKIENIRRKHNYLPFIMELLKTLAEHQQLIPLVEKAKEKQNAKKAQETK
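Assay system: Proteasome-bound UCH37. Buffer or medium: pH 7.4 Tris-HCl (50 mM) with ovalbumin, ATP-MgCl2, DTT. Incubation: 30 min preincubation with enzyme, 25 min cleavage at room temperature. Measured by: fluorescence, ex 355 nm, em 460 nm. Read-out basis: percent inhibition. Control set: wells without proteasome as full block, compound-free enzyme plus substrate as uninhibited.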
Ecoli growth – blocks Escherichia coli growth; OD600, 23 h; stronger effect = lower value; OD600 absorbance (test concentration not listed); 0.21% of 330,000 active; AID 1053175;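 active = OD600 absorbance below the run mean of sample wells minus 3.6 SD, in any replicate, cut at about 0.56 in these data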;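 also: stock transfer was 300 nL into about 60 µL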
AF4-AF9 inh – inhibitors of human MLL-AF4/AF9 interaction; P42568; AlphaScreen, biotin-AF4 peptide binding to FLAG-AF9; inhibition, % at 10 µM; 0.47% of 350,000 active;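 active = every replicate reaching a set inhibition limit, whatever the replicate mean, cut at about 25% in these data; inconclusive = mean inhibition reaches that limit but some replicates miss it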;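 also: 0% = plate neutral control median and 100% = total signal loss; the record names both 10 and 1 µM as test concentration; the first replicate is given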
FGF22 binding – shifts melting point of recombinant human FGF22; Q9HCT0; recombinant FGF22 thermal shift, SYPRO orange fluorescence; percent of sucrose octasulfate shift, DMSO zero; calls only at 9.99 µM; 1.5% of 340,000 active;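 active = melting point raised past a set limit in the mean and every replicate; inconclusive = no clear call; three in four hits are not shown here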
Target sequence (Q9HCT0 whole entry, looked up): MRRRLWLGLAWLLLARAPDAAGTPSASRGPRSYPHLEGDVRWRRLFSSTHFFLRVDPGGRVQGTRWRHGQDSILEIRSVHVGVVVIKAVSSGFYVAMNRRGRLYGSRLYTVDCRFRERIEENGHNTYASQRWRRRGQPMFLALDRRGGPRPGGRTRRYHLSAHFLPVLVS
Vif A3G – inhibitors of Vif binding to APOBEC3G peptide, primary screen, biochemical, TR-FRET, GST-Vif 1-94, biotin-A3G peptide, dose response retest (AID 1117319). TR-FRET GST-Vif / biotin-A3G peptide binding; higher % means a stronger effect; test concentration not given here; strong numbers were not always called active. one-dose inhibition, %; IC50 in µM for titrated hits. 0.57% of 260,000 active;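 active = above the screen mean plus three standard deviations and confirmed in dose response; inconclusive = results disagree or hit not tested in dose response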;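 also: Vif residues 1-94 fused to GST binding biotinylated APOBEC3G peptide 110-148; 0% = full assay without inhibitor and 100% = GST in place of GST-Vif; retest series ran down from 100 µM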
HNF4A DNA FP – change in binding of human HNF4 alpha to DNA; P41235; HNF4a-FITC DNA binding, fluorescence polarization, 1 h; activity change, % at 10 µM; 0.3% of 360,000 active; in the data active = activity change above about 30%, passing the limit was not always enough;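 also: controls were the assay level and a saturating level of protein; the project sought stronger binding though the title names inhibitors; some compounds called inactive have numbers as strong as hits; positive values seem to mean higher polarization but the record does not say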
Target sequence (P41235 whole entry, looked up): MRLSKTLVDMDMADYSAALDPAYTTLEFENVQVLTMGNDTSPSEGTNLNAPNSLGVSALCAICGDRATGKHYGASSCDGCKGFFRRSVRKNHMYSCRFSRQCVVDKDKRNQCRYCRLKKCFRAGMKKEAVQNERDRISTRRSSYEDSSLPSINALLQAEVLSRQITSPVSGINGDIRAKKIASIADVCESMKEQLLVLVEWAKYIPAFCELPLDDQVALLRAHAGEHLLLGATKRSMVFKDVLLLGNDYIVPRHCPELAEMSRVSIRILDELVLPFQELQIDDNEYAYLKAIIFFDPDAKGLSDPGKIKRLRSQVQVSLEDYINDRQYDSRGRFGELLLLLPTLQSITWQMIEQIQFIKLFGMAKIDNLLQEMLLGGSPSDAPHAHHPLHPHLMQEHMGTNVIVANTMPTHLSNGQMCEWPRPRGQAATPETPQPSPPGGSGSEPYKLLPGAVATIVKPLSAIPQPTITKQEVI
Starred values were filed as active, the others as inactive; i = inactive; ? = inconclusive; . = not tested or not shown; & = joins results of further samples. Only part of the results is shown; the hit share may differ from the screen's.

Below each SMILES: RanGTP-Imp inh	UCH37 inh	Ecoli growth	AF4-AF9 inh	FGF22 binding	Vif A3G	HNF4A DNA FP
> CCOC(=O)c1cnc(-c2ccccc2)nc1N(C)C
  3.5	1.9	0.68	.	.	4%	-1.9
> CCN(CC)CCCN1C(=O)C(O)=C(C(=O)c2cc3cccc(OC)c3o2)C1c1ccncc1 (stereo unspecified)
  -3.2	14	0.71	.	.	-4%	7.4
> CC1=C(C#N)C(=O)NC(C)(C)C1
  -4.1	-2.3	0.75	.	.	-1%	2.5
> Cc1cccc(CSCC(=O)NCc2ccc(S(N)(=O)=O)cc2)c1
  -1.5	1.5	0.65	-2.0	i	5%	3.6
> CN(C)C(CNc1ccc([N+](=O)[O-])cc1C#N)c1ccccc1 (stereo unspecified)
  ?	4.7	0.68	1.1	i	7%	0.3
> CC(C)NC(=O)Nc1cccc2c1O[C@H](CN(C)C(=O)Nc1ccccc1)[C@@H](C)CN([C@H](C)CO)C2=O
  .	2.6	0.74	1.1	i	.	0.9
> CCCC1C2CN(C(C)=O)CC=C2C(C#N)=C(N)C1(C#N)C#N (stereo unspecified)
  9.1	-18	0.69	.	.	0%	-3.6
> CCOc1ccc(N(C)C(=O)CCc2nnc3ccc(N4CCC5(CC4)OCCO5)nn23)cc1
  4.1	0.8	0.64	-0.1	i	.	4.6
> CC(=O)[C@H]1CC[C@H]2[C@@H]3C=CC4=CC(=O)CC[C@@]4(C)[C@@H]3CC[C@]12C
  .	2.2	.	0.7	i	.	3.1
> CCC(C)C(=O)Nc1c2c(nc3c1CCC3)CCCC2 (stereo unspecified)
  -0.1	-0.3	0.72	.	.	-5%	2.1
> Cc1c(C(=O)NCc2n[nH]c(=S)n2-c2ccc(F)cc2)cccc1[N+](=O)[O-]
  -1.8	2.9	0.64	-7.5	i	.	1.7
> O=C(N/N=C\c1ccoc1)c1ccco1
  -5.2	.	.	-8.3	i	-2%	-1.3
> CCOC(=O)C1CCN(C(=O)Cc2c(C(=O)O)n(C)c3ccccc23)CC1
  ?	0.6	0.72	.	.	6%	1.2
> CCN(c1ccc(OC)cc1)S(=O)(=O)c1ccc2c(c1)CC(C)N2C(=O)C1CC1 (stereo unspecified)
  -1.1	3.5	0.73	3.0	i	.	-1.6
> CO[C@@H]1CN(C)C(=O)c2cc(NC(=O)Nc3ccc(Cl)cc3)ccc2OC[C@H](C)NC[C@H]1C
  .	.	.	5.2&6.4	i	.	4.8
> c1csc(-c2noc(COc3ccc4c(c3)CCCC4)n2)c1
  3.6	4.2	0.68	.	.	-7%	-3.8
> Cc1cccn2c(NC(=O)c3ccccc3F)c(-c3ccccc3)nc12
  -2.2	3.5	0.65	-3.0	i	-6%	2.8
> CCOC(=O)C1=C(CC)OC(N)=C(C#N)C1c1ccc(OC)c(C)c1OC (stereo unspecified)
  2.9	3.7	0.71	.	.	-1%	0.2
> CNC(=S)N(CCc1cccc(C)c1)Cc1cc2cc(OC)c(OC)cc2[nH]c1=O
  -6.5	-53	0.72	8.1	i	5%	-3.8
> CCOC(=O)c1cnc2c(c(C)nn2C)c1Oc1cc(Cl)cc(Cl)c1
  9.2	3.4	0.68	-0.5	i	.	-2.9
> O=C(NC(=S)Nc1ccccc1[N+](=O)[O-])c1cncc(Br)c1
  1.1	5.1	0.69	-1.9	i	-2%	-0.2
> COc1ccc(C(=O)NCCS(=O)(=O)N2CCc3ccccc3C2)cc1
  6.4	-0.2	0.6	-2.7	i	1%	-0.7
> CCc1nc2ccc(C(=O)NCc3ccccc3OC)cn2c1N(CC)CCN(C)C
  .	.	.	0.0	i	.	-1.8
> COc1cc(/C=N/NS(=O)(=O)c2ccc3ccccc3c2)ccc1OCCN1CCOCC1
  0.8	.	.	.	.	-12%	2.1
> O=C(NCCNC(=O)c1ccco1)c1cccc(F)c1
  -3.2	3.2	0.71	.	.	7%	1.0
> COc1ccc(-c2nc[nH]c2[N+](=O)[O-])cc1
  -3.1	3.1	0.68	-1.5	i	-1%	4.3
> Cc1ccc(Sc2ncccc2/C=N/O)cc1
  5.1	.	.	3.3	i	13%	2.2
> COc1ccc(C(=O)O)cc1N1C(=O)Nc2ccccc2N1O
  -1.4	-1.9	0.66	-2.3	i	.	-1.9
> N#C/C(=C\c1cccs1)Sc1nc2ccccc2s1
  0.9	3.2	0.77	.	.	3%	4.4
> CCOC(=O)c1ccc(NC(=O)Oc2ccccc2)cc1
  -0.2	1.6	0.71	.	.	-2%	-0.4
> Nc1nc(N=Nc2ccc(O)cc2)cc(=O)[nH]1
  .	.	.	-1.4	i	17%	-20
> Cc1ccc(-n2cccn2)cc1
  1.7	0.5	0.67	-0.6	i	0%	8.8
> Cc1noc(C)c1-c1ccc(C(=O)NCc2cccnc2)c2occc12
  .	.	.	-0.5	i	.	1.2
> Cc1ccc(NS(=O)(=O)c2cc(C(=O)O)ccc2Cl)cc1
  -2.4	-0.8	0.72	.	.	3%	-1.1
> CC1Cc2ccccc2N1CC(=O)Nc1ccc2c(c1)OCO2 (stereo unspecified)
  2.5	1.9	0.65	.	.	4%	0.8
> CCc1noc(C)c1C(=O)NCCc1ccc(F)cc1
  4.6	2.5	0.66	-3.4	i	3%	1.7
> COc1cccc(COc2ccc(N(C)S(=O)(=O)c3ccccc3)cc2)c1
  ?	-2.1	0.71	-3.7	i	.	1.3
> COc1cccc(NC(=O)C2CCCN2C(=O)Nc2cccc(F)c2)c1 (stereo unspecified)
  -1.5	-0.4	0.71	.	.	25%	0.1
> c1cncc(-c2nnc(SCc3cccc4ccccc34)o2)c1
  1.1	3.6	0.69	7.9	i	8%	-1.3
> CCCCN(C(=O)COC(=O)COc1c(C)cc(C)cc1C)c1c(N)n(CCC)c(=O)[nH]c1=O
  -0.5	1.0	0.64	-23	i	-2%	-0.3
> CCCCCCCCCCC(=O)Nc1cccnc1
  -0.6	3.8	0.67	-0.6	i	4%	.
> CC1=C(C(=O)NCc2ccccc2)C(c2cccs2)NC(=S)N1 (stereo unspecified)
  5.3	1.4	0.68	-1.4	i	-6%	-5.5
> Cc1cc(NC(=O)c2ccccc2Cl)ccc1NC(=O)c1ccccc1Cl
  3.4	3.7	0.7	0.9	i	.	-2.1
> CN(CCC#N)C(=O)CSc1ncnc2sc(-c3ccccc3)cc12
  3.7	-0.8	0.71	.	.	-2%	5.5
> COc1ccc(NC(=O)C2CC(=O)NC3=C2C(=O)CC(C)(C)C3)cc1 (stereo unspecified)
  1.0	6.2	0.65	-10	i	1%	0.9
> Cc1c(CC(=O)N[C@@H](C)C(=O)O)c(=O)oc2cc3occ(-c4ccccc4)c3cc12
  1.1	-0.7	0.68	0.9	i	-3%	2.5
> Cc1occc1C(=O)Nc1ccc([N+](=O)[O-])cc1Br
  3.2	1.2	0.7	-1.0	i	.	-0.4
> CC(=O)N1CCSc2ccc(S(=O)(=O)NCCc3cccc(C)c3)cc21
  3.9	4.7	0.71	-3.9	i	3%	-1.0
> Cc1c(C(=O)Oc2cc(N)n(S(C)(=O)=O)n2)cccc1[N+](=O)[O-]
  -3.2	5.3	0.68	-1.9	i	-3%	-2.9
> Cc1ccc2cc(CN(Cc3ccccc3)Cc3nnnn3C3CCCC3)c(=O)[nH]c2c1
  1.0	4.4	0.69	-5.6	i	15%	-2.8

Two entries from above, as labelled records.
> CC(C)NC(=O)Nc1cccc2c1O[C@H](CN(C)C(=O)Nc1ccccc1)[C@@H](C)CN([C@H](C)CO)C2=O
  RanGTP-Imp inh: .
  UCH37 inh: 2.6
  Ecoli growth: 0.74
  AF4-AF9 inh: 1.1
  FGF22 binding: i
  Vif A3G: .
  HNF4A DNA FP: 0.9
> CCC(C)C(=O)Nc1c2c(nc3c1CCC3)CCCC2 (stereo unspecified)
  RanGTP-Imp inh: -0.1
  UCH37 inh: -0.3
  Ecoli growth: 0.72
  AF4-AF9 inh: .
  FGF22 binding: .
  Vif A3G: -5%
  HNF4A DNA FP: 2.1

Continued.
Below each SMILES: RanGTP-Imp inh	UCH37 inh	Ecoli growth	AF4-AF9 inh	FGF22 binding	Vif A3G	HNF4A DNA FP
> O=C(COC(=O)c1ccco1)Nc1ccc2c(c1)OCO2
  -0.1	-2.4	0.77	.	.	4%	-3.1
> Nc1ncnc2c1ncn2[C@@H]1O[C@H](C(=O)N2CCC[C@@H]2C(=O)OCc2ccccc2)[C@@H](O)[C@H]1O
  .	.	.	0.9	i	.	0.9
> CC1Nc2ncnc(N3CCN(c4ccccc4)CC3)c2N(Cc2ccc(Br)cc2)C1=O (stereo unspecified)
  ?	0.8	0.73	13	i	.	-1.2
> O=C(Cn1nc(C(=O)O)c2ccccc2c1=O)Nc1cc(Cl)cc(Cl)c1
  5.5	3.5	0.61	-0.1	i	7%	-0.4
> CC(=O)NCCNc1nc2cc(-c3cc(F)ccc3C)sc2c(=O)n1C
  .	.	.	-2.7	i	.	-3.2
> CC(Sc1nc2ccccc2s1)C(=O)Nc1nnc(C(C)C)s1 (stereo unspecified)
  2.2	1.1	0.76	.	.	-2%	-1.0
> CC(=O)Nc1nc2nc(-c3ccccc3)cc(-c3ccccc3)n2n1
  2.1	-86	0.74	.	.	3%	0.3
> O=C(Oc1cccc(NC(=O)c2ccco2)c1)c1cccc(S(=O)(=O)N2CCCC2)c1
  4.3	3.0	0.65	.	.	2%	-0.7
> c1ccc(-c2csc(-c3cccnc3)n2)cc1
  -1.9	2.6	0.66	-1.2	i	-2%	-3.6
> CCN(CC)S(=O)(=O)c1cc(NC(=O)COC(=O)c2ccc(NC(=O)CC#N)cc2)ccc1C
  -26	-1.9	0.72	-1.0	i	11%	-0.4
> O=C(NCCc1ccccc1)c1nccc2ccccc12
  -1.6	4.1	0.73	-2.5	i	.	0.2
> COc1ccc(S(=O)(=O)NCCCN2CCCC2=O)cc1OC
  0.6	0.1	0.67	-2.5	i	.	1.9
> COc1ccccc1C(C)NCC(=O)NCc1ccc(C)cc1 (stereo unspecified)
  3.0	3.4	0.69	0.6	i	2%	3.0
> C/C(N)=C(/C#N)C(=O)COC(=O)c1cc(-c2ccc(C)cc2)nc2ccccc12
  6.2	-41	0.71	.	.	0%	-1.8
> CCOC(=O)C1=CCN(S(=O)(=O)c2ccccc2Cl)C1c1ccc(Cl)c(Cl)c1 (stereo unspecified)
  .	.	.	-1.9	i	.	-0.9
> CCOc1ccccc1NC(=O)COC(=O)COc1c(Cl)cc(Cl)c2ccc(C)nc12
  0.3	2.1	0.67	-0.9	i	.	-0.1
> CCOC(=O)c1ccccc1OCc1cc(/C=N/n2cncn2)ccc1OC
  -3.0	.	.	.	.	4%	5.2
> CCOC(=O)C1=CC[C@@H](c2ccccc2)N(S(=O)(=O)c2ccc(C)cc2)[C@H]1c1ccccc1C
  .	.	.	-1.6	i	.	4.0
> COC(=O)c1c(NC(=O)CSc2nccn2C)sc(C)c1C
  -4.2	-0.1	0.64	3.1	i	0%	-0.9
> Clc1ccccc1-c1ccc2ncnc(NCc3ccc4c(c3)OCO4)c2c1
  .	-1.1	0.7	0.6	i	.	0.4

Bioassay records as filed in PubChem BioAssay.
